Bioassay records: PubChem, National Center for Advancing Translational Sciences (NCATS)
miR-21 reporter – miR-21 reporter, rising signal; Potency, µM (highest dose often 38.3 µM), for inactives: top-dose reporter change, positive = more light; 340,000 tested, under 10 active; AID 2288; HeLa miR-21 FLuc reporter, luciferase, 48 h; active = well fitted rising curve with a large enough effect; inconclusive = small, poorly fitted or top-dose-only effect; inactive = no such curve, though single readings can be large or run the other way;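 note: % of control where 0% means no effect; miR-21 action dims this reporter so a rising signal means less miR-21 action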
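HeLa cells stably expressing CMV-driven firefly luciferase with a downstream miR-21 binding sequence, endogenously expressing miR-21, were treated with titrations (up to about 40uM final) for 48 hours at 37 degree Celsius. Luciferase luminescence was read after lysis.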
GLA inh pH 4.5 – blocks human alpha-galactosidase A at pH 4.5; P06280; purified enzyme, 4-MU-alpha-Gal fluorescence, pH 4.5; activity change, negative = inhibition, % at 105 µM; 230,000 tested, under 10 active; AID 1467; inconclusive = small, poorly fitted or top-dose-only inhibition, or a rising curve; inactive = flat fitted curve, though single readings scatter; no compound was filed as active;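 note: 0% = full activity with enzyme and -100% = basal without enzyme; dose as in the result columns while the protocol names 77 µM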
Target sequence (P06280 whole entry, looked up): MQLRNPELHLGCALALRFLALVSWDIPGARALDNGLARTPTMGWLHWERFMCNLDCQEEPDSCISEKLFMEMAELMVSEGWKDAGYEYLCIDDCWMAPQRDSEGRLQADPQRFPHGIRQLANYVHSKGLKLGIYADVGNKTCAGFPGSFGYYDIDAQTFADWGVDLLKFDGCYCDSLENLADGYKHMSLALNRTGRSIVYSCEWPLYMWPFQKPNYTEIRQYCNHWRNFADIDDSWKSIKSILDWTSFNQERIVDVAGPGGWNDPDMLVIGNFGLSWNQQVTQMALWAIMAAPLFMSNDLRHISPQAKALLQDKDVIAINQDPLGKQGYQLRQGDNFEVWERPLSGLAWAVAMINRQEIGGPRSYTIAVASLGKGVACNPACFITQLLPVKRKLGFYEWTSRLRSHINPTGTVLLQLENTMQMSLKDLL
Rango release inh – inhibitors of RanGTP-induced Rango-importin beta complex dissociation | hit rate 0.071% among 340,000 | Biochemical FRET Rango-importin beta, RanGTP-induced dissociation | AID 540253 | O95149+P62826 | Potency, µM (doses to about 46.1 µM), inactives show at the top dose activity change, negative = inhibition; active means falling FRET ratio curve, often poorly fitted, with flat reads before Ran was added; inconclusive means other falling curves, or compound fluorescence or quenching; inactive means flat or rising ratio curve;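 note: potency is the fitted concentration of half-maximal effect; % of control where 0% means no effect; nearly all actives have a fitted effect of over 45% in size; -100% = wells without RanGTP and RCC1; the record marks most hits as doubtful in a second field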
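Rango/importin beta premix (0.1/0.25 uM final), PBS + 1 mM DTT + 0.02% Tween-20 + 0.1% BSA; cpd 5 min RT; FRET pre-read; + RanGTP-RCC1 (0.6 uM Ran, 2 mM GTP, 0.2 uM RCC1); 45 min RT; FRET post-read, ex 430, em 486/530 nm.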
Rango complex inh – inhibitors of Rango-importin beta complex formation; Q14974; Rango CFP/YFP FRET sensor + importin beta, 45 min; Potency, µM (titrated, usually from 92.2 µM), for the others: at the top dose inhibition of complex formation; hit rate 0.031% among 340,000; AID 540263; active = rising FRET ratio curve, often small or poorly fitted; inconclusive = mostly compound fluorescence or quenching in the first reads; inactive = flat curves in all reads;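 note: potency is the fitted concentration of half-maximal effect; 0% = DMSO wells and 100% = buffer wells lacking importin beta; nearly all actives have a fitted effect of over 15% in size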
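FRET biosensor Rango (snurportin 1 IBB between N-terminal EYFP and C-terminal Cerulean), 50 nM in PBS/1 mM DTT/0.02% Tween-20/0.1% BSA, preincubated 5 min RT with compound; 0.125 microM importin beta added, 45 min RT, CFP/YFP FRET ratio read.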
An asterisk follows results filed as active; ? = inconclusive; . = no result given; & = joins results of further samples. An excerpt; count on the stated rates, not on these rows.

miR-21 reporter	GLA inh pH 4.5	Rango release inh	Rango complex inh	SMILES
0%	1	18%	3.0%	O=C(NC1(C(F)(F)F)N=C2SCCN2C1=O)C1CCCCC1 (stereo not given)
-16%	.	25%	-5.5%	O=C(CCc1c[nH]c2ccccc12)NCCc1ccccc1
-4%	-1	12%	-2.3%	C#CCn1c(=NC(=O)c2cccs2)sc2cccc(OCC)c21
-5%	8	0%	2.7%	Cc1cc(-c2n[nH]c(=S)n2-c2ccc(F)cc2)nn1C
0%	-6	-4%	9.7%	CCOC(=O)c1c[nH]n2c(=O)cc(C)nc12
-17%	3	-5%	-1.2%	CCC(=O)Nc1cnc(NC(=O)c2cccc(F)c2)cc1C
-1%	-9	-2%	0.2%	COc1ccc(CCN2C(=O)C3CC(C)=C(C)CC3C2=O)cc1OC (stereo not given)
0%	-1	1%	0.7%	COc1ccc(S(=O)(=O)NCC(c2cccnc2)N2CCN(c3ccccc3)CC2)cc1C (stereo not given)
5%	?	.	.	COc1ccc(C2CC(=O)c3cnc(N4CCc5ccccc54)nc3C2)cc1OC (stereo not given)
-35%	6	-9%	0.0%	COc1ccc(C(=O)COC(=O)c2ccco2)cc1
-9%	-14	-11%	-3.3%	O=C(O)C1CCCN(S(=O)(=O)c2cccs2)C1 (stereo not given)
.	.	-17%	-0.1%	COc1cccc(C(=O)NOCc2ccc(C)cc2)c1OC
-45%	.	2%	0.4%	O=C(Nc1ccc(F)cc1)Nc1ccc2c(c1)CCC2
16%	0	3%	0.4%	Cc1ccccc1C(=O)N1CCN=C1SCc1ccc([N+](=O)[O-])cc1
23%	-9	13%	?	Brc1ccc(-c2c[n+]3c(n2-c2ccccc2)SCC3)cc1
-5%	.	0%	-0.8%	CC(=O)[C@@]1(O)[C@H](C)CC2C3CC=C4CC(OP(=O)(O)O)CC[C@]4(C)C3CC[C@@]21C (stereo not given in full)
-34%	5	19%	-7.9%	COc1ccc(-c2cnnn2-c2ccc(NC(=O)c3ccc(S(=O)(=O)N4CCCCC4)cc3)cc2)cc1OC
.	.	-11%	-4.3%	Cc1ccccc1OCC(=O)Nc1ccc(C)c(S(=O)(=O)N2CCCCCC2)c1
1%	-5	0%	-0.9%	COc1ccc(CCC(=O)N(C)CC(=O)Nc2cc(C)ccc2C)cc1
.	.	29%	?	COc1ccc(-c2noc(CCC(=O)N3CCN(c4cccc(F)c4)CC3)n2)cc1
-86%	7	2%	0.5%	Cc1nnc2n(c1=O)N=C(c1ccc(Cl)cc1)CS2
-3%	0	?	?	C(=C\c1nc(N2CCCCCC2)c2ccccc2n1)/c1ccccc1
2%	.	7%	1.5%	O=C(NC(Cc1c[nH]c2ccccc12)C(=O)O)c1ccc2c(c1)OCO2 (stereo not given)
.	.	1%	-1.9%	COc1cccc(-c2ncc3ccccc3c2COC(=O)CCCC(=O)O)c1
.	.	-5%	?	Cc1ccc2c(c1)N(CC(=O)Nc1ccccc1F)C(=O)C(C)O2 (stereo not given)
6%	0	18%	-1.9%	O=C(Cc1n[nH]c(=O)[nH]c1=O)N/N=C/c1cccc(Cl)c1
0%	-11	-12%	-4.8%	CN(C)c1ccc(/C=[N+](\[O-])C2SC(=S)N(C)C2(C)C)cc1 (stereo not given)
-8%	-7	-3%	-4.1%	CCN(CC)S(=O)(=O)c1ccc2oc(SCC3CN=C(c4ccc(OC)cc4)S3)nc2c1 (stereo not given)
-1%	11	19%	5.8%	CCCCOc1ccc(C(CC(=O)NC)C(=O)O)cc1 (stereo not given)
.	.	-12%	4.1%	Cc1cccc(C(=O)OCC(=O)N2CCCCCC2)c1C
0%	-2	0%	1.8%	CCOC(=O)C1(Cc2ccccc2C(F)(F)F)CCN(C2CCSC2)CC1 (stereo not given)
2%&4%	.	2%	-1.5%	COc1ccc(OC)c(S(=O)(=O)NCCS(=O)(=O)N2CCN(c3ccccc3)CC2)c1
.	.	-11%	3.9%	C[C@@H]1COC(=O)[C@H](Cc2ccc(F)cc2)CC/C=C/C[C@@H](CC(=O)N[C@H](CO)Cc2ccccc2)C(=O)N1
-61%	.	13%	0.5%	Clc1ccc(-n2ncc3c(NCc4ccccn4)ncnc32)cc1
-2%	0	0%	-0.6%	O=C(CCc1c[nH]c2ccccc12)Nc1ccc(S(=O)(=O)Nc2ncccn2)cc1
-4%	.	-6%	2.0%	CC1(C)Cc2ccccc2/C(=C/C(=O)c2ccccc2)N1
-31%	-6	?	?	Cc1cccc(Nc2ccc([N+](=O)[O-])cc2C(=O)O)c1
-30%	6	-9%	-2.1%	CCCSc1nsc(NC(=O)c2cccnc2OCC)n1
0%	-5	11%	3.0%	CCOC(=O)C(C)(C)C(=O)C(C)(C)C(O)c1ccccn1 (stereo not given)
.	.	14%	5.1%	Cc1cnc(C(=O)OCC(=O)N(Cc2ccccc2)C(C)(C)C)cn1
-4%	-5	?	?	CC1=C(C(=O)Nc2ccccc2)C(c2ccc(N(C)C)cc2)NC(=O)N1 (stereo not given)
4%	-2	7%	-1.7%	Cc1cccn2c(CN3CCCC(c4ccccc4)C3)c(C(=O)N3CCOCC3)nc12 (stereo not given)
6%	-4	1%	1.3%	Cc1ccc(OCc2nnc(SC3CCc4ccccc4C3=O)n2C)cc1 (stereo not given)
-22%	.	3%	-0.7%	CCOC(=O)c1sc(NC(=O)Cc2ccccc2OC)nc1C
.	.	-8%	-2.8%	COc1ccc(C(=O)N2CCN(c3ncccn3)CC2)cc1S(=O)(=O)N1CCOCC1

15 structures already listed, sorted by SMILES length, rising:
miR-21 reporter	GLA inh pH 4.5	Rango release inh	Rango complex inh	SMILES
-30%	6	-9%	-2.1%	CCCSc1nsc(NC(=O)c2cccnc2OCC)n1
-1%	11	19%	5.8%	CCCCOc1ccc(C(CC(=O)NC)C(=O)O)cc1 (stereo not given)
.	.	-12%	4.1%	Cc1cccc(C(=O)OCC(=O)N2CCCCCC2)c1C
-22%	.	3%	-0.7%	CCOC(=O)c1sc(NC(=O)Cc2ccccc2OC)nc1C
-4%	.	-6%	2.0%	CC1(C)Cc2ccccc2/C(=C/C(=O)c2ccccc2)N1
-61%	.	13%	0.5%	Clc1ccc(-n2ncc3c(NCc4ccccn4)ncnc32)cc1
0%	-5	11%	3.0%	CCOC(=O)C(C)(C)C(=O)C(C)(C)C(O)c1ccccn1 (stereo not given)
6%	-4	1%	1.3%	Cc1ccc(OCc2nnc(SC3CCc4ccccc4C3=O)n2C)cc1 (stereo not given)
.	.	14%	5.1%	Cc1cnc(C(=O)OCC(=O)N(Cc2ccccc2)C(C)(C)C)cn1
0%	-2	0%	1.8%	CCOC(=O)C1(Cc2ccccc2C(F)(F)F)CCN(C2CCSC2)CC1 (stereo not given)
-4%	-5	?	?	CC1=C(C(=O)Nc2ccccc2)C(c2ccc(N(C)C)cc2)NC(=O)N1 (stereo not given)
4%	-2	7%	-1.7%	Cc1cccn2c(CN3CCCC(c4ccccc4)C3)c(C(=O)N3CCOCC3)nc12 (stereo not given)
.	.	-8%	-2.8%	COc1ccc(C(=O)N2CCN(c3ncccn3)CC2)cc1S(=O)(=O)N1CCOCC1
2%&4%	.	2%	-1.5%	COc1ccc(OC)c(S(=O)(=O)NCCS(=O)(=O)N2CCN(c3ccccc3)CC2)c1
.	.	-11%	3.9%	C[C@@H]1COC(=O)[C@H](Cc2ccc(F)cc2)CC/C=C/C[C@@H](CC(=O)N[C@H](CO)Cc2ccccc2)C(=O)N1

Next section:
miR-21 reporter	GLA inh pH 4.5	Rango release inh	Rango complex inh	SMILES
8%	.	24%	-0.1%	CCC1(c2ccc(Cl)cc2)NC(=O)N(CC(=O)NCc2ccc(F)cc2)C1=O (stereo not given)
-1%	1	-7%	-2.1%	CC(=O)NC(Cc1ccccc1)C(=O)N1CCN(C(=O)c2ccco2)CC1 (stereo not given)
-2%	.	-5%	0.1%	COc1cc2c(cc1OC)C(COc1cc(C)cc(C)c1)N(C(C)=O)CC2 (stereo not given)
1%	-4	3%	-2.4%	O=C1N/C(=C/c2cccs2)C(=O)N1Cc1ccccc1F
-40%	?	40%	-2.8%	CN(C)c1ccc(/C=N/n2cnn(Cc3ccccc3Cl)c2=S)cc1
1%	4	9%	1.1%	COc1cc(NC(=S)N2CCCCC2C)cc(OC)c1OC (stereo not given)
21%	-4	-16%	-0.2%	COc1ccc(C2CC(=O)C=C(NCc3ccccc3)C2)cc1 (stereo not given)
-40%	-23	-6%	-5.2%	Cc1ccc(-c2cc(C(=O)NCc3ccccn3)no2)cc1
.	-10	?	?	COc1cc(/C=C(\C#N)C(=O)c2ccc(O)c(O)c2)cc(I)c1O
.	.	?	6.4%	CC1=CN(S(=O)(=O)c2ccc(C)cc2)C[C@@H]2c3ccccc3N(S(=O)(=O)c3ccc(C)cc3)[C@H]12
-3%	.	1%	0.0%	O=C(CCN1N=C(c2ccccc2)CCC1=O)NCC1COc2ccccc2O1 (stereo not given)
1%	.	17%	2.6%	CC(=O)N1CCC(C(=O)NCCOc2ccc(C)cc2)CC1
-1%	2	3%	-2.3%	Cc1cc(C)n(C(=O)CCCn2cc([N+](=O)[O-])cn2)n1
2%	-5	-2%	4.0%	Cc1cc(C(=O)N/N=C/c2cccc([N+](=O)[O-])c2)c2ccccc2n1
8%	5	-17%	-5.7%	Cc1c(C=O)c2ccccc2n1CC(=O)NC(C)c1ccccc1 (stereo not given)
-9%	10	5%	1.4%	CC(Oc1ccc(Br)cc1)C(=O)NCc1ccccn1 (stereo not given)
2%	0	.	.	Cc1ccc(C)n1C(Cc1ccccc1)C(=O)O (stereo not given)
10%	-5	22%	9.0%	O=[N+]([O-])/C(C(Cl)=C(Cl)Cl)=C(\Sc1ccccc1)N1CCCCC1
-41%	4	-9%	0.6%	Cc1ccc(C(=O)N2CCc3ccccc32)cc1
-34%	0	7%	-2.1%	Cc1cccc(NC(=O)NC(C)CCc2ccccc2)c1 (stereo not given)
.	.	-4%	0.1%	CCN(C[C@H]1N[C@@](C)(C(=O)OC)[C@H]2C(=O)N(Cc3ccccc3)C(=O)[C@@H]12)C(=O)Nc1ccc(OC)cc1
-2%	4	-11%	2.6%	COc1cccc(N2CCN(CC(=O)C34CC5CC(CC(C5)C3)C4)CC2)c1
-15%	-6	-16%	0.7%	NS(=O)(=O)c1ccc(CCNC(=O)CC(NC(=O)c2ccccc2Cl)c2ccccc2)cc1 (stereo not given)
-24%	.	-8%	-2.1%	O=C(O)c1ccc(-n2cc(C(=O)c3ccccc3O)cn2)cc1
11%	-5	16%	1.2%	CC(C)N(C(=O)CSc1nc2ccccc2n1Cc1ccccc1F)C(C)C
.	.	-8%	0.7%	O=C(O)/C(=C/c1ccc(Cl)c([N+](=O)[O-])c1)c1ccc(S(=O)(=O)N2CCCCC2)s1
.	.	0%	-1.3%	C=CCC[C@H](Cc1ccc(F)cc1)C(=O)OC[C@@H](Cc1c[nH]c2ccccc12)NC(=O)[C@H](CC=C)CC(=O)N(CCO)Cc1ccccc1
.	.	1%	-0.8%	O=C(NCC1CCCO1)c1ccc(S(=O)(=O)Nc2ccc(F)cc2)cc1 (stereo not given)
-5%	7	2%	0.0%	CC(OC(=O)c1nsc(Cl)c1Cl)C(=O)NCc1ccc2c(c1)OCO2 (stereo not given)
-11%	.	-11%	0.1%	Cc1c(NC(=O)C(C)C)cccc1-c1nc2ncccc2o1
-6%	.	0%	-5.5%	Cc1ccccc1NC(=O)CSc1nnc(C)c2ccccc12
